ASM inhibitor: Inhibitors of Secretory Acid Sphingomyelinase (S-ASM): qHTS. placental ASM, HMU-PC fluorogenic substrate, 60 min. Potency, µM (titrated, usually from 57.5 µM), inactives show at the highest dose activity change, negative = inhibition, usual class: inhibitors. 0.006% of 340,000 active. AID 504937, 2011; note: potency is the fitted concentration of half-maximal effect
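HMU-PC0 cleavage (9 uM final) by human placental ASM, 60 min at 37 °C following 10 min compound exposure at RT; stopped at pH 10, fluorescence Ex 386/Em 447 nm.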
Integrin act MD: qHTS for Activators of Integrin-Mediated Alleviation for Muscular Dystrophy | 0.064% of 350,000 active | Potency, µM (series often up to 38.3 µM), without a hit: at the top dose activation, most hits filed as activators | AID 624291, 2012 | alpha7betagal myoblasts, beta-gal FDG fluorescence, 48 h;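 note: potency is the fitted concentration of half-maximal effect; 100% = response of the positive control SU9516; nearly all actives have a fitted effect of over 60% in size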
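alpha7betagal+/- myoblasts (passage 13, 250/well) treated 48 h at 37C with compounds at 1:260 dilution of DMSO stock. Lysed, then beta-galactosidase activity read as FDG fluorescence (ex 480/em 540) after 30 min, with pre-read for autofluorescence.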
A-T KAP1 phos: qHTS Assay for Identifying a Potential Treatment of Ataxia-Telangiectasia. Potency, µM (titrated, usually from 57.5 µM), inactives show top-dose activation, usual class: activators. […] A-T fibroblasts, KAP-1 phosphorylation AlphaLISA; neocarzinostatin DNA damage 30 min before lysis. 0.19% of 320,000 active; note: potency is the fitted concentration of half-maximal effect; % of control where 0% means no effect; nearly all actives have a fitted effect of over 45% in size
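ATM-like activity read as KAP-1 phosphorylation via AlphaLISA donor/acceptor antibody pairs after lysis and 6 hr at 25C. Cells were ATM-null patient fibroblasts ([…], hTERT), dosed 60 min, then exposed to the DSB inducer NCS for 30 min.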
TCR act: Activators of T cell receptors: qHTS campaign | primary human leukocytes, anti-CD3, IL-2 HTRF, 48 h | Potency, µM (highest dose often 9.22 µM), for inactives: top-dose activation of IL-2 secretion, hits mostly activators | 330,000 tested, under 10 active | AID 504894, 2011; note: % of control where 0% means no effect
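Primary human leukocytes incubated 48 hr with anti-CD3 beads plus compound, without co-stimulation. Secreted IL-2 measured by HTRF (europium cryptate/d2 anti-IL-2 pair, 320 nm excitation, 665 nm emission).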
TSG101-PTAP inh: qHTS Assay for Iinhibitors of HIV-1 Budding by Blocking the Interaction of PTAP/TSG101. Tumor susceptibility gene 101 protein (Homo sapiens), Q99816. Fluorescence polarization, FITC-PTAP peptide / Tsg101 binding. Potency, µM (series often up to 115 µM), without a hit: at the highest dose activity change, negative = inhibition, usual class: inhibitors. 340,000 tested, under 10 active; active = well fitted inhibition curve with a large enough effect in the main read-out, with a control signal flat, not every such curve was filed as active; note: potency is the fitted concentration of half-maximal effect; % of control where 0% means no effect
Target sequence (Q99816 whole entry, looked up): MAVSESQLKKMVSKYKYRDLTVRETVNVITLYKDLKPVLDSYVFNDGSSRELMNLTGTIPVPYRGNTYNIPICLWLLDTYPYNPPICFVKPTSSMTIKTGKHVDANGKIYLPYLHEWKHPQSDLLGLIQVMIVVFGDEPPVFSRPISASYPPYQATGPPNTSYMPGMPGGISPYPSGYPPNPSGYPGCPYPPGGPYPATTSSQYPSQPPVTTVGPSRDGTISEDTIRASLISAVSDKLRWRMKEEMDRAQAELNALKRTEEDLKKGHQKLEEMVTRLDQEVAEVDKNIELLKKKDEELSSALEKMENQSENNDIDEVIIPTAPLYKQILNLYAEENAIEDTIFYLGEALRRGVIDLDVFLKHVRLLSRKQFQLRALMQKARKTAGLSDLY
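Fluorescence anisotropy tracks displacement of a FITC-tagged PTAP peptide (50 nM) from the Tsg101 binding domain (10 uM), following a 20 min room-temperature incubation at pH 7.5.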
* marks the source's active call; other numbers are inactive results; · = no result given; & = joins results of further samples. Unless noted, calls come from the whole dose curve; as a rule, active = well fitted curve in the direction sought with a large enough effect; inconclusive = small, poorly fitted or top-dose-only effect, or another doubt; inactive = no such curve, though single readings can be large; an effect the other way counts as inactive or inconclusive. The list is partial, so the mix of outcomes need not match the whole.

SMILES | ASM inhibitor | Integrin act MD | A-T KAP1 phos | TCR act | TSG101-PTAP inh
C[C@]12CCC3C(CC[C@H]4C[C@@H](O)CC[C@]34C)C1CCC2=O (stereo partly drawn) | 3% | 13% | 3% | -4% | -9%
CC[C@@H](CO)NC(=O)[C@@H]1C=C2c3cccc4c3c(cn4C)C[C@H]2N(C)C1 | 27%&25% | · | 1%&-6%&-57% | 4%&2% | -13%&-15%
C[C@]12CC[C@@H](O)C[C@@H]1CC[C@@H]1[C@@H]2CC[C@]2(C)C(=O)CC[C@@H]12 | 1% | · | · | 16% | 0%
C[C@]12CCC3[C@@H](CC[C@H]4C[C@@H](O)CC[C@]34C)C1CCC2=O (stereo partly drawn) | -1% | 4% | 4% | 2% | -1%
O=C(Cc1ccccc1)N1CCN(CC2CC=CCC2)CC1 (stereo not drawn) | -1% | 21% | · | 7% | -2%
O=C(CSc1ccc(-c2ccco2)nn1)Nc1ccccc1 | -2% | -16% | 3% | 2% | -2%
C[C@]12CC[C@H](O)C[C@@H]1CC[C@@H]1[C@@H]2CC[C@]2(C)C(=O)CC[C@@H]12 | -4% | · | 0% | -2% | 2%

One compound at a time (already shown). Screens in order: ASM inhibitor, Integrin act MD, A-T KAP1 phos, TCR act, TSG101-PTAP inh
`C[C@]12CC[C@@H](O)C[C@@H]1CC[C@@H]1[C@@H]2CC[C@]2(C)C(=O)CC[C@@H]12` is listed with 1%, ·, ·, 16%, 0%
`C[C@]12CC[C@H](O)C[C@@H]1CC[C@@H]1[C@@H]2CC[C@]2(C)C(=O)CC[C@@H]12` is listed with -4%, ·, 0%, -2%, 2%

Part of the list above, with values under each structure:
Values in the order – ASM inhibitor | Integrin act MD | A-T KAP1 phos | TCR act | TSG101-PTAP inh
C[C@]12CCC3C(CC[C@H]4C[C@@H](O)CC[C@]34C)C1CCC2=O (stereo partly drawn)
→ 3% | 13% | 3% | -4% | -9%
CC[C@@H](CO)NC(=O)[C@@H]1C=C2c3cccc4c3c(cn4C)C[C@H]2N(C)C1
→ 27%&25% | · | 1%&-6%&-57% | 4%&2% | -13%&-15%
C[C@]12CC[C@@H](O)C[C@@H]1CC[C@@H]1[C@@H]2CC[C@]2(C)C(=O)CC[C@@H]12
→ 1% | · | · | 16% | 0%
C[C@]12CCC3[C@@H](CC[C@H]4C[C@@H](O)CC[C@]34C)C1CCC2=O (stereo partly drawn)
→ -1% | 4% | 4% | 2% | -1%
O=C(Cc1ccccc1)N1CCN(CC2CC=CCC2)CC1 (stereo not drawn)
→ -1% | 21% | · | 7% | -2%
O=C(CSc1ccc(-c2ccco2)nn1)Nc1ccccc1
→ -2% | -16% | 3% | 2% | -2%
C[C@]12CC[C@H](O)C[C@@H]1CC[C@@H]1[C@@H]2CC[C@]2(C)C(=O)CC[C@@H]12
→ -4% | · | 0% | -2% | 2%
